Screens as filed in PubChem.
D2 ag – Beta-Arrestin HTS for Positive Allosteric Modulators of the Human D2 Dopamine Receptor: Agonists; DiscoveRx PathHunter D2 beta-arrestin, luminescence, 90 min; 100% = 57 uM dopamine signal; D(2) dopamine receptor (Homo sapiens), P14416; activation, % (no concentration beside the values); 360,000 compounds, 0.084% hits; in the data active = activation above about 40%; inconclusive = about 15% to 40%; inactive = below about 15%; also: compound concentration not given in the record; the text of the record calls up to 30% inactive
Target sequence (P14416 whole entry, looked up): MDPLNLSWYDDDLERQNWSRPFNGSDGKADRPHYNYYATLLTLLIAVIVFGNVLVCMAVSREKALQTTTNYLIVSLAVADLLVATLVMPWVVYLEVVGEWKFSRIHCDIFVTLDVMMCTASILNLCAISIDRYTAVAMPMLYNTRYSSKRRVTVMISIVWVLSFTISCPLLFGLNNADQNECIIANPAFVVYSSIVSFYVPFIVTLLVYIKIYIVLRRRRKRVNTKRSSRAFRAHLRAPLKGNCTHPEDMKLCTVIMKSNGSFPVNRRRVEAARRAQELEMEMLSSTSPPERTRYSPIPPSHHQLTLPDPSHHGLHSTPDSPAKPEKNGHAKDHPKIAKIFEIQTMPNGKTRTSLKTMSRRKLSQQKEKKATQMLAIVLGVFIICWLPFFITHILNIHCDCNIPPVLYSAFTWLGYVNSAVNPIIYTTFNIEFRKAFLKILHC
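DiscoveRx PathHunter D2 beta-arrestin cells (2,100/well) attached overnight, then compound-stimulated 90 min at 37 C in HBSS/10 mM HEPES/0.1% Tween-20 buffer; beta-galactosidase complementation read by luminescence after 1 h at ambient temperature. Dopamine 57 uM final (EC100) as control.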
gsp ag – qHTS for Agonist of gsp, the Etiologic Mutation Responsible for Fibrous Dysplasia/McCune-Albright Syndrome: qHTS | gsp mutant cells, cAMP HTRF, 30 min; control for the full effect not named in the record | Potency, µM (doses to about 76.9 µM), for the others: at the top dose activation (cAMP increase), usual class: activators | 340,000 compounds, 0.13% hits | AID 624287, 2012; active = well fitted activation curve with a large enough effect; inconclusive = small, poorly fitted or top-dose-only effect, or another doubt; inactive = no such curve, though single readings can be large or run the other way; cell line not stated here;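 also: phosphodiesterase inhibitor Ro 20-1724 added with compounds to block cAMP breakdown; potency is read from the fitted curve at half-maximal effect; nearly all actives have a fitted effect of over 60% in size; about a fifth of the inactives were tested at one dose only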
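Cells in DMEM/10% FBS with G418 were pretreated with compounds in DMSO plus […] (300 uM stock) for 30 min at 37C. cAMP was measured by HTRF (cAMP-d2 plus anti-cAMP antibody-K) after 30 min at room temperature.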
D2 PAM – Beta-Arrestin HTS for Positive Allosteric Modulators of the Human D2 Dopamine Receptor: Potentiators. 360,000 compounds, 0.23% hits. D(2) dopamine receptor (Homo sapiens), P14416. potentiation, % (no concentration beside the values). DiscoveRx D2 beta-arrestin cells, luminescence, 90 min; 100% = 57 uM dopamine signal; active = potentiation of 50% or more; inconclusive = 30% to 50%; inactive = 30% or less;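 also: compound concentration not given in the record; tested on top of an EC20 dose of dopamine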
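PathHunter D2 cells, attached overnight at 37 deg C, received compound in DMSO plus dopamine at EC20 (50 nM final) for 90 min at 37 deg C. Beta-arrestin recruitment was read as luminescence after 1 h with detection reagent at ambient temperature.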
Six1-Eya2 inh – qHTS Assay for Inhibitors of the Six1/Eya2 Interaction; Homeobox protein SIX1 (Homo sapiens) + Protein phosphatase EYA2 (Homo sapiens), …; AlphaScreen GST-Six1/His-Eya2 binding, biochemical; stronger effect = lower value; control for the full effect not named in the record; activity change, % (test concentration not listed); 360,000 compounds, 0.56% hits; in the data active = activity change below about -65%; inconclusive = about -30% to -65%; inactive = above about -30%; also: % is scaled to controls: 0 for no effect and ±100 for the full control effect
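GST-Six1 + His-Eya2 (5X stock: 250/500 nM); Tris pH 8.0, 300 mM NaCl, 0.05% BSA, 0.02% Tween 20; GSH donor/Ni acceptor beads; 1 h 37 °C dark; AlphaScreen readout.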
gsp antag – qHTS for Antagonists of gsp, the Etiologic Mutation Responsible for Fibrous Dysplasia/McCune-Albright Syndrome: qHTS | gsp-mutant cells, cAMP HTRF, 30 min; control for the full effect not named in the record | Potency, µM (titrated, usually from 76.9 µM), inactives show at the highest dose activity change, negative = inhibition, hits mostly inhibitors | 340,000 compounds, 0.4% hits | AID 624288, 2012; active = falling curve of any shape with a large fitted effect; inconclusive = falling curve, mostly with a smaller effect; inactive = flat or rising curve; cell line not stated here;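 also: intracellular cAMP measured with PDE inhibitor Ro 20-1724 present during compound exposure; potency is read from the fitted curve at half-maximal effect; % is scaled to controls: 0 for no effect and ±100 for the full control effect; nearly all actives have a fitted effect of over 65% in size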
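Measurement of cellular cAMP by homogeneous time-resolved fluorescence following a 30 min compound exposure at 37C. The PDE inhibitor […] was present throughout; the assay buffer was DPBS with 0.05% BSA and 0.005% Tween 20.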
CtBP-E1A blk – qHTS Assay for Inhibitors of the CtBP/E1A Interaction; activity change, % (test concentration not listed); AlphaScreen GST-E1A/His-CtBP binding, 1536-well; stronger effect = lower value; control for the full effect not named in the record; 340,000 compounds, 0.49% hits; CtBP / adenovirus E1A interaction (AlphaScreen); in the data active means activity change below about -65%; inconclusive means about -30% to -65%; inactive means above about -30%; also: % is scaled to controls: 0 for no effect and ±100 for the full control effect
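In 5 uL wells, 23 nL compound meets equimolar GST-E1A and His-CtBP (5X stock 125 nM each) for 2 h, 37 °C. Beads (5X, 50 ug/mL) then 1 h, 37 °C, dark.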
Active calls of the source: *; ? = inconclusive; · = not tested or not shown; [ ] = another dose, or the depositor's remark.

Results follow in this order: Six1-Eya2 inh, D2 PAM, D2 ag, CtBP-E1A blk, gsp ag, gsp antag
Cc1cccn2c(=O)nc(SCC(=O)NC3CCCCC3)nc12
→ -5, -6, 1.5, 10, 22%[15.4 µM], 23%
Fc1ccc(/C=N/N2CCCCC2)c(F)c1
→ 6, -10, -1.2, ·, 19%, 1%
COc1ccc(/C=N/NC(=O)CSCC(=O)Nc2ccccc2)cc1
→ -4, -4, -1.8, -5, -4%, 0%
CCC1(c2ccccc2)NC(=O)N(CC(=O)Nc2cc(S(=O)(=O)N3CCCCCC3)ccc2OC)C1=O (stereo not drawn)
→ -10, 63*, 7.8, -1, -11%, ?
CCOc1ccccc1NC(=O)COC(=O)CN1C(=O)NC(C)(C)C1=O
→ 4, -4, 0.1, 13, ?, 14%
Cc1nc(C)c(-c2csc(Nc3ncccc3C)n2)s1
→ -10, -28, -0.7, ·, -3%, 1%
O=C(NC(=S)NCC1CCCO1)c1ccccc1F (stereo not drawn)
→ -10, -2, -5.9, ·, 19%, -12%
CCC1(C)Cc2c(C#N)c(SC)nc(N3CCOCC3)c2CO1 (stereo not drawn)
→ -1, 2, -0.1, 6, 11%, -17%
CC(=O)Nc1ccc(NC(=O)CN(C)S(=O)(=O)c2ccc3ccccc3c2)cc1
→ -6, -11, -3.9, -1, 3%, -7%
COc1ccc(NC(=O)CSCc2cc(=O)n3ccsc3n2)cc1
→ 0, -10, -4.0, 2, ?, 13%

4 entries drawn at random from the list so far, as already listed:
Results follow in this order: Six1-Eya2 inh, D2 PAM, D2 ag, CtBP-E1A blk, gsp ag, gsp antag
COc1ccc(/C=N/NC(=O)CSCC(=O)Nc2ccccc2)cc1
→ -4, -4, -1.8, -5, -4%, 0%
COc1ccc(NC(=O)CSCc2cc(=O)n3ccsc3n2)cc1
→ 0, -10, -4.0, 2, ?, 13%
CCC1(C)Cc2c(C#N)c(SC)nc(N3CCOCC3)c2CO1 (stereo not drawn)
→ -1, 2, -0.1, 6, 11%, -17%
O=C(NC(=S)NCC1CCCO1)c1ccccc1F (stereo not drawn)
→ -10, -2, -5.9, ·, 19%, -12%

Next records:
Results follow in this order: Six1-Eya2 inh, D2 PAM, D2 ag, CtBP-E1A blk, gsp ag, gsp antag
O=C(O)CCCCCNC(=O)c1ccncc1
→ -2, -7, -4.5, 4, ?, 12%
COCCCNc1nc2ccccc2nc1NS(=O)(=O)c1ccc(C)c(C)c1
→ -1, -2, -2.5, -3, -3%[15.4 µM], -9%
CN1CCN(C(=O)c2cc(-c3cccc(Cl)c3)on2)CC1
→ 6, -16, -1.7, -2, ?, 12%
Cc1cccc(NC(=O)CCN2C(=O)C3C4C=CC(C4)C3C2=O)c1 (stereo not drawn)
→ 5, 0, -0.7, 1, 1%, 11%
COc1ccccc1-c1cnn2c(NC3CCCC3)cc(C)nc12
→ 11, -4, -2.6, 40, -15%, -31%
Clc1cccc(-c2nc(NCCN3CCOCC3)c3ccccc3n2)c1
→ -6, -3, 2.0, -14, -42%[inhibitor], -9%
Cc1ccccc1C(=O)Nc1ccc(C(=O)O)cc1NC(=O)c1ccccc1C
→ -1, -3, 0.2, ·, -28%, 5%
CN(CCOC(=O)C1c2ccccc2Oc2ccccc21)C(C)(C)C
→ 7, -25, -0.4, 6, ?, 14%
Nc1ccc(Oc2ccc3c(c2)C(=O)N(CC2CCCO2)C3=O)cc1 (stereo not drawn)
→ -3, -5, 3.7, -6, -31%[inhibitor], ?
C[n+]1ccc2[nH]c3ccccc3c2c1
→ 4, -3, 3.9, 1, ·, ·
Cc1ccc(CN2CC(C(=O)Nc3cc(C)ccn3)CC2=O)cc1 (stereo not drawn)
→ 6, 0, -4.7, -8, 0%[15.4 µM], -10%
COC(=O)COc1ccc(S(=O)(=O)N2CCN(c3ccc(F)cc3)CC2)cc1
→ 0, -11, -0.3, 15, 6%, -23%
O=C(COC(=O)c1cccnc1Cl)NCc1cccs1
→ -11, -4, -3.3, -5, -26%, 10%
CC(=O)N1CCN(S(=O)(=O)c2cccc(C(=O)OCc3cccc(F)c3)c2)CC1
→ -1, -6, -4.9, 0, 0%, -6%
COc1ccc(CCNC(=S)NC(=O)c2cccc([N+](=O)[O-])c2)cc1OC
→ -17, 6, 3.1, -13, 19%, -12%
CCN1CCN(Cc2ccc(NC(=O)Nc3ccccc3)cc2)CC1
→ -5, -8, 0.9, 2, 3%, 3%
CN(C)/N=C/c1cc([N+](=O)[O-])ccc1O
→ 1, -18, -7.4, 0, ?, -8%
COC(=O)C1(Cc2ccccc2)NC(c2ccc(F)cc2)C2C(=O)N(C)C(=O)C21 (stereo not drawn)
→ -4, -3, -1.2, 7, -73%[inhibitor], -5%
COc1cc(Cl)c(C)cc1NC(=O)COC(=O)C1=NN(c2ccccc2)C(=O)CC1
→ 4, -6, -4.0, -15, 14%, -18%
C=C1CC[C@@]23CC[C@]4(C)[C@@](OC2=O)([C@@H]3C1)[C@H]1O[C@H]1C1[C@@]2(C)CC[C@H](O)C(C)(C)C2CC[C@]14C (stereo partly drawn)
→ -4, 1, 1.3, 2, ?, -2%
O=C(NNc1ncnc2c1cnn2-c1cccc(Cl)c1)c1ccco1
→ -5, -8, -3.2, -8, -3%, -12%
CC(NC(=O)c1ccc(N(C)C)cc1)C1CC2CCC1C2 (stereo not drawn)
→ -7, -11, -3.5, -1, -7%[15.4 µM], -5%
O=C(Nc1ccccc1)N(CCN1CCOCC1)Cc1cccc(Cl)c1
→ 4, -14, 2.1, 3, -9%, 4%
Cc1cc(=O)[nH]c(-n2[nH]c(C)cc2=O)n1
→ ?, -7, -4.6, ?, -3%, -1%
Nc1ccc(C(=O)NCCCSc2ccccc2)cc1[N+](=O)[O-]
→ -16, -3, 1.8, 0, 2%, -19%
COCCNC(=S)N(C)C1(c2ccccc2Cl)CCCCC1=O (stereo not drawn)
→ -1, 1, -4.8, 0, 29%, -3%
Cc1ccc(C(=O)OCC(=O)Nc2ccc(N(C)C)cc2)cc1NC(=O)c1ccco1
→ -3, 20, 2.1, -1, 15%, -8%
O=C(Nc1c(F)c(F)c(F)c(F)c1F)C1CCCCC1
→ 2, 22, 0.9, -2, 0%, -10%
O=C(CCCN1C(=O)/C(=C/c2cccc(Br)c2)SC1=S)Nc1ccccn1
→ -5, 11, 0.2, -3, 18%, -6%
S=C1NCCc2ccccc2C1c1ccccc1 (stereo not drawn)
→ -26, -17, -4.1, -17, -18%, -15%
O=C(O)Cc1nc2nc3c(c(=O)n2[nH]1)CCCC3
→ 2, 5, -1.3, 8, -41%[inhibitor], 2%
CCC(CC)C(=O)Nc1c2c(nn1-c1ccc(F)cc1)CS(=O)(=O)C2
→ 2, 6, 4.6, 11, -19%, 3%
COCCNc1ncnc2c1ncn2[C@H]1CN(CCOC)C[C@@H](CO)O1
→ 5, 1, -3.6, 1, ·, ·
CCOC(=O)CSc1nc2cc(C(=O)N3CCCC3)ccc2c(=O)n1Cc1ccccc1
→ -13, -10, 0.2, -14, -6%, ?
CCOc1ccc(CN(C)C(=O)CCl)cc1
→ 2, -1, -2.0, 0, 13%, -1%
CC(C)C(=O)NCCc1nc2ccccc2n1CCCOc1ccc(Cl)cc1
→ 0, -31, -1.6, -1, 20%, -4%
CCN(CC(=O)NC1CC1)S(=O)(=O)c1ccc(C)cc1
→ -6, -2, 3.2, -16, ?, -14%
CSc1ccc(Cl)c(C(=O)NCCCn2ccnc2)c1
→ -1, -10, -7.9, ·, 7%, 13%
Cc1ccc(C(C)C)cc1OCC(=O)NCCCn1ccnc1
→ -4, -19, -2.2, -5, 0%, 1%
CCOc1cc(C(=O)NCc2ccc(F)cc2)ccc1OCC(=O)N1CCCCC1
→ 4, -2, 2.7, -3, 10%, -8%
CCN(CC(=O)Nc1ccc(NC(C)=O)cc1)C(=O)C1CC(=O)N(CCc2ccc(OC)c(OC)c2)C1 (stereo not drawn)
→ 6, -10, -2.3, 1, 8%[15.4 µM], 9%
COCC(=O)OCc1cc2cccc(C)c2[nH]c1=O
→ -1, -3, -4.3, 7, 6%[15.4 µM], 11%
COc1ccc(S(=O)(=O)N2CCCCCC2)cc1C(=O)NCc1ccc(C)cc1
→ 7, -17, -0.3, ·, -1%, -9%
Nc1c(C(=O)N2CCCC2)sc2nc3c(cc12)CCCCCC3
→ 10, -3, -8.0, 6, 1%[15.4 µM], 7%
COc1ccc(/C=N/N2C(C)CCCC2C)cc1O (stereo not drawn)
→ 0, -10, -1.4, 4, 17%[15.4 µM], 4%
Cc1cccc(C)c1NC(=O)CSc1n[nH]c(=O)n1C1CC1
→ 13, 0, 0.4, ·, -28%, 4%
CC(NC(=O)c1c(O)c2ccccc2n(C)c1=O)c1ccccc1 (stereo not drawn)
→ 4, 4, -4.1, -9, 15%, -4%
O=c1cc(-c2ccc(OCc3ccccc3)cc2)oc2cc(OCc3ccccc3)cc(OCc3ccccc3)c12
→ -2, 2, 0.6, 3, ·, -1%
COc1ccc(Nc2cccc(Cl)c2)c(C(=O)O)c1
→ -4, 12, -0.8, 2, 26%, -21%
CC(C)(C)Cc1c(-c2cccc(Cl)c2)nc2ccc(Br)cn12
→ -5, -18, -8.9, -5, ·, ·

(list continues)
Results follow in this order: Six1-Eya2 inh, D2 PAM, D2 ag, CtBP-E1A blk, gsp ag, gsp antag
CC(=O)Nc1nnc(-c2ccc(Cl)s2)o1
→ -2, -3, -2.0, -26, -19%, 4%
CC(=O)Nc1sc2c(c1C#N)CCN(Cc1ccccc1)C2
→ 3, -9, -0.4, 1, -66%[inhibitor], 3%
CC(C)(C)NC(=S)NCc1ccc2c(c1)OCO2
→ 2, -12, 4.2, 8, -16%, 7%
CCOc1ccc(NC(=O)C2CCCN(S(=O)(=O)c3cccc4nsnc34)C2)cc1 (stereo not drawn)
→ 1, -4, -2.5, 11, -64%[inhibitor], 4%
